Source: PubChem (National Center for Advancing Translational Sciences (NCATS))
StopGo RLuc: FMDV 2A StopGo reporter, Renilla signal | HEK cells with a luciferase reporter of 2A StopGo recoding | Potency, µM (highest dose often 57.5 µM), for the others: at the top dose signal change, negative = less light | 120,000 compounds, 0.32% hits; active means well fitted falling curve with a large enough effect; inconclusive means small, poorly fitted or top-dose-only effect; inactive means no such curve, though single readings can be large or run the other way; also: nearly all actives have a fitted effect of over 55% in size; overnight with compound
StopGo FLuc: lowers the firefly signal of an FMDV 2A StopGo reporter; HEK cells with a luciferase reporter of 2A StopGo recoding; 120,000 compounds, 0.23% hits; Potency, µM (titrated, usually from 57.5 µM), for inactives: at the highest dose signal change, negative = less light; AID 1745856; active = well fitted falling curve with a large enough effect; inconclusive = small, poorly fitted or top-dose-only effect; inactive = no such curve, though single readings can be large or run the other way; also: nearly all actives have a fitted effect of over 60% in size; overnight with compound
* marks the source's active call; other numbers are inactive results; [ ] = remark or other dose. % is scaled to controls: 0 for no effect and ±100 for the full control effect; potency is read from the fitted curve at half-maximal effect.

For O=C(c1ccccc1)c1ccc(OCc2ccc(-c3ccccc3)cc2)cc1 the results were StopGo RLuc 4.2% and StopGo FLuc 3.7%.
CC(Oc1ccccc1)C(=O)Nc1ccccc1C(=O)OCc1cc(=O)n2nc(C(C)C)sc2n1 (stereo not given) was read as StopGo RLuc -12.6% and StopGo FLuc -7.7%.
Screening CCN(CC)S(=O)(=O)c1ccc(S(=O)(=O)Nc2c(C)cccc2C)cc1 returned StopGo RLuc 2.9% and StopGo FLuc 15.1%.
`CCCn1c(NC(=O)COc2cccc(C)c2)nc2ccccc21` gave StopGo RLuc 64.4%[activator] and StopGo FLuc -11.6%.
`Cn1c(COc2ccc3c(c2)CCCC3)nnc1SCC(=O)NC1CCCCC1` gave StopGo RLuc -6.2% and StopGo FLuc 58.6%[activator].
Screening CCCCN1C(C)=NC(C(F)(F)F)(C(F)(F)F)C2=C1CC(C)(C)CC2=O returned StopGo RLuc 1.9% and StopGo FLuc 0.1%.
Cc1cc(C(F)F)n2nc(C(=O)Nc3ccc(C(C)C)cc3)nc2n1 was read as StopGo RLuc -0.3% and StopGo FLuc 21.3%.
Screening COc1ccccc1C(=O)Nc1nnc(SCc2cc(=O)c3ccccc3[nH]2)s1 returned StopGo RLuc inconclusive and StopGo FLuc -1.6%.
`COCCCNC(=O)CSc1ccc(C)c(C)c1` gave StopGo RLuc -3.9% and StopGo FLuc -0.8%.
`Cc1ccc(C(=O)NC(NC(=O)c2ccccc2)C(Cl)Cl)cc1` (stereo not given) gave StopGo RLuc -2.9% and StopGo FLuc -11.1%.
Screening COc1ccc(-c2cc(=O)oc3cc(OCC(=O)NCCN(C)C)ccc23)cc1 returned StopGo RLuc -6.6% and StopGo FLuc -0.8%.
`COc1ccccc1Nc1sc(C(=O)c2ccc(Br)cc2)c(N)c1C(N)=O` gave StopGo RLuc -3.1% and StopGo FLuc 4.5%.
`Cc1c(C(=O)N(C)c2ccccc2)nnn1-c1ccc(Cl)cc1` gave StopGo RLuc 10.6% and StopGo FLuc 106.2%[activator].
`COc1cccc(/C=C(/C(=O)c2ccccc2)c2nc3ccccc3s2)c1` gave StopGo RLuc inconclusive and StopGo FLuc 19.5%.
`N#Cc1c(-c2ccccc2)cc(-c2cccs2)nc1SCCS(=O)(=O)c1nc2ccccc2s1` gave StopGo RLuc 14.1% and StopGo FLuc 14.0%.
CCC(CC)C(=O)Oc1ccc2c(C)cc(=O)oc2c1 was read as StopGo RLuc -3.6% and StopGo FLuc 0.5%.
Screening NC(=O)c1ccc(CNC(=O)c2ccc(C(F)(F)F)cc2)cc1 returned StopGo RLuc 1.8% and StopGo FLuc 20.1%.
For CCOc1ccc(S(=O)(=O)Nc2cccc(CC)c2)c2cccnc12 the results were StopGo RLuc 122.9%[activator] and StopGo FLuc 8.3%.
Screening CCN1CCN(c2nc3ccccc3nc2NS(=O)(=O)c2cc(Cl)ccc2Cl)CC1 returned StopGo RLuc 9.8% and StopGo FLuc -2.0%.
For COC(=O)c1c(NC(=O)CSc2ccccn2)sc2c1CCCC2 the results were StopGo RLuc 33.8%[activator] and StopGo FLuc 8.0%.
For Fc1ccccc1CSc1nnc(-c2c[nH]c3ccccc23)n1C1CC1 the results were StopGo RLuc 10.1%[1.06 µM] and StopGo FLuc inconclusive.
For Cc1oc(-c2ccccc2)nc1CNC(=O)NC1CCCCC1 the results were StopGo RLuc 13.7% and StopGo FLuc -22.5%.
`COCCNC(=S)N/N=C/c1ccc(C(C)(C)C)cc1` gave StopGo RLuc -10.7% and StopGo FLuc 45.2%[activator].
For CCOc1cccc(CNCC2CCCO2)c1 (stereo not given) the results were StopGo RLuc 4.1% and StopGo FLuc 8.8%.
Screening Cc1cccc(NC(=O)C2CCCN(S(=O)(=O)c3ccc4c(c3)oc(=O)n4C)C2)c1C (stereo not given) returned StopGo RLuc -3.5% and StopGo FLuc -10.7%.
Screening COc1ccc(CNC(=O)c2cnc(N3CCCC3)nc2C)cc1 returned StopGo RLuc -1.3% and StopGo FLuc -3.1%.
`COc1ccc(CNC(=O)CN2C(=O)COc3ccc(S(=O)(=O)N4CCCCC4)cc32)cc1` gave StopGo RLuc 11.4% and StopGo FLuc -19.4%.
Screening CCN(CC)S(=O)(=O)c1ccc2c(c1)N(CC(=O)NCCc1ccccc1)C(=O)CO2 returned StopGo RLuc -4.4% and StopGo FLuc inconclusive.
`COc1ccc(S(=O)(=O)N2CCC(N3CCN(Cc4ccc(F)cc4)C(=O)C3=O)CC2)cc1` gave StopGo RLuc -8.5% and StopGo FLuc -29.2%.
O=C(CSc1ncnc2c1sc1cccc(F)c12)NC1CC1 was read as StopGo RLuc -3.2% and StopGo FLuc 7.1%.
For O=C1CN(C(=O)C2CCN(c3nc4ccccc4o3)CC2)CCN1 the results were StopGo RLuc 30.9%[activator] and StopGo FLuc inconclusive.
For COc1ccc(C2NC(=S)NC3=C2CCc2ccccc23)cc1 (stereo not given) the results were StopGo RLuc 10.9% and StopGo FLuc 29.4%.
Screening CC(=O)c1ccc(C(=O)N(CCCN(C)C)c2nc3ccc(Br)cc3s2)cc1 returned StopGo RLuc -18.4% and StopGo FLuc -19.3%.
O=C(CCc1nc(-c2ccccc2)no1)Nc1cccc(S(=O)(=O)NC2=NCCC2)c1 was read as StopGo RLuc 36.9%[activator] and StopGo FLuc 13.9%.
`CCOC(=O)/C(C#N)=C\c1cc(Br)ccc1OCc1ccc(Cl)cc1` gave StopGo RLuc 0.0% and StopGo FLuc 30.3%.
For Cc1cccc(C(=O)N2CCc3cc(CNC(=O)c4ccnn4C)ccc32)c1 the results were StopGo RLuc -8.4% and StopGo FLuc -24.3%.
`Cc1ccc(S(=O)(=O)N2CCC(C(=O)O)CC2)cc1F` gave StopGo RLuc -11.5% and StopGo FLuc -9.4%.
For CCN(CC)c1ccc(NC(=O)c2cc3ccc(OC)cc3[nH]2)cc1 the results were StopGo RLuc 2.3% and StopGo FLuc 0.0%.
For CCOC(=O)C1CCN(C(=O)c2ccc3c(c2)sc2nc(-c4ccc(C)cc4)cn23)CC1 the results were StopGo RLuc -0.9% and StopGo FLuc 55.7%[activator].
Screening O=C(Nc1cc(Cl)ccc1F)C1CC(=O)N(C2CCCC2)C1 (stereo not given) returned StopGo RLuc 18.2% and StopGo FLuc 5.8%.
COc1ccc(NS(=O)(=O)c2ccc(-c3cc(C(F)(F)F)on3)s2)cc1 was read as StopGo RLuc 0.0% and StopGo FLuc 0.0%.
For COc1ccc2oc(-c3ccc(NC(=O)c4ccccc4C)cc3)nc2c1 the results were StopGo RLuc -18.8% and StopGo FLuc 5.4%.
For Cc1ccc(-c2cc3ncc4c(n3n2)-c2cc(F)ccc2OC4)cc1 the results were StopGo RLuc 1.3% and StopGo FLuc 55.9%[activator].
For CCCCNc1nc(-c2ccc([N+](=O)[O-])cc2)nc2ccccc12 the results were StopGo RLuc -23.8% and StopGo FLuc 20.2%.
`CN(CC(=O)Nc1ccc(Cl)cc1F)S(=O)(=O)c1ccc2c(c1)n(C)c(=O)c(=O)n2C` gave StopGo RLuc -20.3% and StopGo FLuc -19.1%.
`COc1ccccc1/C=C(\C#N)C(=O)NCC1CCCO1` (stereo not given) gave StopGo RLuc -7.7% and StopGo FLuc 15.2%.
O=C(NCc1ccc(F)cc1)NC1CC1 was read as StopGo RLuc -4.5% and StopGo FLuc 10.8%.
For CCCCn1c(N2CCN(Cc3cccc(C)c3)CC2)nc2c1c(=O)[nH]c(=O)n2C the results were StopGo RLuc -3.3% and StopGo FLuc 17.4%.
COc1ccccc1NC(=O)C1=C(C)NC(Nc2nc3ccccc3o2)=NC1c1ccccc1 (stereo not given) was read as StopGo RLuc -4.4% and StopGo FLuc -0.8%.
CCOc1cccc2cc(C(=O)N3CCN(c4ccccc4C)CC3)c(=O)oc12 was read as StopGo RLuc 0.0% and StopGo FLuc 12.6%.
For N#Cc1nc(/C=C/c2ccc(F)cc2)oc1N1CCCCCC1 the results were StopGo RLuc -8.2% and StopGo FLuc 77.9%[activator].
O=C(Cc1c(F)cccc1Cl)NCc1cccnc1N1CCOCC1 was read as StopGo RLuc 8.0% and StopGo FLuc 26.5%.
For COc1cccc(C2CC(=O)Nc3cc4c(cc32)OCO4)c1OC(C)C (stereo not given) the results were StopGo RLuc -11.4% and StopGo FLuc -30.7%.
Screening Cc1cccc(NC(=O)CN(C)C(=O)c2cccc(S(=O)(=O)NCC3CCCO3)c2)c1C (stereo not given) returned StopGo RLuc 0.0% and StopGo FLuc 14.8%.
Screening CCN(C(=O)CN1CC=C(c2ccccc2)CC1)C1CCS(=O)(=O)C1 (stereo not given) returned StopGo RLuc 5.2% and StopGo FLuc 29.5%.
`COc1cc(OC)cc(C(=O)Nc2ccc3oc(-c4ccncc4)nc3c2)c1` gave StopGo RLuc 0.0% and StopGo FLuc 0.0%.
`Cc1nc2cc(NC(C)C(=O)Nc3ccc(C#N)cc3)ccc2o1` (stereo not given) gave StopGo RLuc 27.3% and StopGo FLuc 11.3%.
For CCCCNC(=O)c1cccc(-n2c(C)nc3cccnc32)c1 the results were StopGo RLuc 2.4% and StopGo FLuc -4.6%.
O=C(Nc1ccc(-c2nc3ccccc3o2)cc1)C1CCCC1 was read as StopGo RLuc 2.7% and StopGo FLuc 178.1%[activator].
Cc1cccc(N2CCN(C(=O)c3cnn(-c4ccccc4Cl)c3C3CCN(C(=O)OC(C)(C)C)CC3)CC2C)c1 (stereo not given) was read as StopGo RLuc -6.1% and StopGo FLuc -10.6%.
`CCCN1CCC(NC(=O)COc2ccc(Cl)cc2C)CC1` gave StopGo RLuc -9.7% and StopGo FLuc -3.3%.
For COc1cc(C2C3=C(CCCC3=O)Nc3nc(SCc4ccccc4Cl)[nH]c(=O)c32)ccc1O (stereo not given) the results were StopGo RLuc 10.2% and StopGo FLuc -6.5%.
`CCCNC(=O)CN1C(=O)COc2ccc(S(=O)(=O)N3CCC(C)CC3)cc21` gave StopGo RLuc 12.3% and StopGo FLuc -2.4%.
O=C(NCCc1ccccc1)OCc1cn(Cc2ccc(F)c(F)c2)nn1 was read as StopGo RLuc 8.3% and StopGo FLuc 6.8%.
`COc1ccc(OC)c(NC(=O)N2CCN(c3ccc(=O)n(-c4ccccc4)n3)CC2)c1` gave StopGo RLuc -1.0% and StopGo FLuc 5.0%.
Screening COC(=O)C1=C(C)Nc2nc3ccccc3n2C1c1ccc(O)c(OC)c1 (stereo not given) returned StopGo RLuc 22.0% and StopGo FLuc 0.0%.
Cc1ccc(-c2csc3ncn(Cc4nc(C(C)C)no4)c(=O)c23)cc1 was read as StopGo RLuc -2.0% and StopGo FLuc -1.3%.
For O=C(NC(c1ccccc1)c1cccs1)c1ccccc1 (stereo not given) the results were StopGo RLuc 32.1%[activator] and StopGo FLuc 0.0%.
For COc1ccc(C(=O)c2sc(Nc3ccccc3)nc2N)cc1OC the results were StopGo RLuc 164.6%[activator] and StopGo FLuc 208.5%[activator].
`O=C(NCc1ccccc1CN1CCCC1)c1ccccc1Cl` gave StopGo RLuc -9.9% and StopGo FLuc -6.0%.
For CC(=O)Oc1ccc2c(-c3cc4ccccc4oc3=O)cc(=O)oc2c1 the results were StopGo RLuc 7.9% and StopGo FLuc 9.8%.
Cc1ccc(C(=O)CSc2nnc3ccc4ccccc4n23)cc1 was read as StopGo RLuc 4.3% and StopGo FLuc 17.2%.
CCOc1ccccc1NC(=O)Cn1c(=O)n(Cc2ccccc2)c(=O)c2c3c(sc21)CN(C(C)=O)CC3 was read as StopGo RLuc -9.1% and StopGo FLuc -22.1%.
Screening Cc1n[nH]c(C)c1C returned StopGo RLuc 8.6% and StopGo FLuc 9.4%.
`COc1ccc(-n2c(SCC(=O)Nc3ccc(Cl)c(C)c3)nc3n[nH]c(C)c3c2=N)cc1` gave StopGo RLuc 9.4% and StopGo FLuc -20.3%.

A draw from above in order of molar mass, lowest first.
`CCCN1CCC(NC(=O)COc2ccc(Cl)cc2C)CC1` gave StopGo RLuc -9.7% and StopGo FLuc -3.3%.
`O=C(NCc1ccccc1CN1CCCC1)c1ccccc1Cl` gave StopGo RLuc -9.9% and StopGo FLuc -6.0%.
For CC(=O)Oc1ccc2c(-c3cc4ccccc4oc3=O)cc(=O)oc2c1 the results were StopGo RLuc 7.9% and StopGo FLuc 9.8%.
Screening COC(=O)C1=C(C)Nc2nc3ccccc3n2C1c1ccc(O)c(OC)c1 (stereo not given) returned StopGo RLuc 22.0% and StopGo FLuc 0.0%.
Cc1ccc(-c2csc3ncn(Cc4nc(C(C)C)no4)c(=O)c23)cc1 was read as StopGo RLuc -2.0% and StopGo FLuc -1.3%.
`CCCNC(=O)CN1C(=O)COc2ccc(S(=O)(=O)N3CCC(C)CC3)cc21` gave StopGo RLuc 12.3% and StopGo FLuc -2.4%.

Further entries:
CCCOc1ccc(-c2cccc(NS(=O)(=O)c3cc(OC)ccc3OC)c2)nn1 was read as StopGo RLuc 189.8%[activator] and StopGo FLuc -4.3%.
Screening O=C(NC(O)C(=O)c1ccc(Cl)cc1)c1ccc(Br)cc1 (stereo not given) returned StopGo RLuc -7.7% and StopGo FLuc 1.2%.
COc1ccc(Cl)cc1NC(=O)CN1C(=O)CN=C(c2ccccc2)c2cc(Cl)ccc21 was read as StopGo RLuc -17.0% and StopGo FLuc 15.4%.
Screening O=C(O)CS(=O)(=O)CCCc1ccccc1 returned StopGo RLuc 23.1% and StopGo FLuc 0.0%.
`Cc1cc(C(=O)NCC(=O)NC(C)C)c2ccccc2n1` gave StopGo RLuc -7.8% and StopGo FLuc 3.2%.
NC(=O)CSc1nc2c(oc3ccccc32)c(=O)n1Cc1ccccc1 was read as StopGo RLuc -4.1% and StopGo FLuc -2.4%.
For Cc1cccc(-c2nc(SCC(=O)NCC3CCCO3)c3c(=O)n(C)c(=O)n(C)c3n2)c1 (stereo not given) the results were StopGo RLuc 7.7% and StopGo FLuc -3.8%.
Screening Cc1ccc(NC(=O)CSc2ncc(-c3ccc(C)c(C)c3)o2)cc1 returned StopGo RLuc -16.9% and StopGo FLuc 4.4%.
